Assay outcomes from PubChem BioAssay.
PINK1 expr mod: modulators of PINK1 expression; Potency, µM (top dose mostly 76.6 µM), for the others: at the highest dose activation (PINK1 increase), usual class: activators; 410,000 tested, 0.2% active; PINK1 immunofluorescence, high-content cytometry, 24 h; active = well fitted activation curve with a large enough effect; inconclusive = small, poorly fitted or top-dose-only effect; inactive = flat fitted curve, though single readings scatter; cell line not stated here;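 note: potency is the fitted concentration of half-maximal effect; % of control where 0% means no effect; nearly all actives have a fitted effect of over 65% in size; a mitochondrial uncoupler was the plate control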
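Stable cell line, 250 cells/well, 12 h attachment; compounds pinned at 5 concentrations, 24 h; CCCP control. Fixed with nuclear dye, primary antibodies 12 h at 10 degrees C, secondary plus cell stain; laser-scanning cytometer read.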
TRPV1 PAM: enhances activation of the human vanilloid receptor TRPV1 | 320,000 tested, 0.02% active | TRPV1-expressing cells, Fluo-8 calcium influx, capsaicin EC20 potentiation; host cell line not named in the record; control for the full effect not named in the record | potentiation, % at 8.33 µM | AID 540277 | Q8NER1; active means potentiation above 80%; inconclusive means 30% to 80%; inactive means below 30%; note: 0% is about no effect
Target sequence (Q8NER1 whole entry, looked up): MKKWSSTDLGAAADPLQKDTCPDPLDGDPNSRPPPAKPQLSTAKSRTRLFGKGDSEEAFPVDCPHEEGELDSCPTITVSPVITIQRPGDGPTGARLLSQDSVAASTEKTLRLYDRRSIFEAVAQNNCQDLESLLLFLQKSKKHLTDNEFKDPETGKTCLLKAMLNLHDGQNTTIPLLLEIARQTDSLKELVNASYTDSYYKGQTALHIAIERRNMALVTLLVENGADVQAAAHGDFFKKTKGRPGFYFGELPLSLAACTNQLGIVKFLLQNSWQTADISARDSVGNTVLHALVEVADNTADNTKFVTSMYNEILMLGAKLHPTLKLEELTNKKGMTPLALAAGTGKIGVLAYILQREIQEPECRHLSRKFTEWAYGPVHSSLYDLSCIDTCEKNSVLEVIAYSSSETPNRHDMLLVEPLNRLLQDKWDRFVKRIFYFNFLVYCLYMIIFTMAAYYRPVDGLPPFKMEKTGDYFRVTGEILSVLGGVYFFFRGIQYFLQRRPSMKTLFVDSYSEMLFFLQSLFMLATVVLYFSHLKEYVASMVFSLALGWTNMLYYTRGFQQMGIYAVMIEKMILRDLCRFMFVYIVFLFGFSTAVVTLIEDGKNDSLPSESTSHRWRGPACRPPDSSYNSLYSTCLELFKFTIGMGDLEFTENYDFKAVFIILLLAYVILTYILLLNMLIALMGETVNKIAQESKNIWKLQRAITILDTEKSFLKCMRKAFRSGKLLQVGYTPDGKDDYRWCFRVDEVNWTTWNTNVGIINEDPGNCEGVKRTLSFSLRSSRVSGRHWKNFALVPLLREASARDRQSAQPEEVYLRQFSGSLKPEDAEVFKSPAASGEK
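Fluo-8 calcium influx in TRPV1-expressing cells, kinetic read (ex 480/em 520 nm). Compound added and read 3 min for agonist activity, followed by capsaicin at EC20 final and 2 min further read for enhancement.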
D2 PAM: human D2 receptor positive allosteric modulation. potentiation, % (concentration not given with the values). DiscoveRx D2 beta-arrestin cells, luminescence, 90 min; 100% = 57 uM dopamine signal. 360,000 tested, 0.23% active. P14416; active = potentiation of 50% or more; inconclusive = 30% to 50%; inactive = 30% or less;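 note: compound concentration not given in the record; tested on top of an EC20 dose of dopamine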
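PathHunter D2 cells, attached overnight at 37 deg C, received compound in DMSO plus dopamine at EC20 (50 nM final) for 90 min at 37 deg C. Beta-arrestin recruitment was read as luminescence after 1 h with detection reagent at ambient temperature.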
CtBP-E1A inh: CtBP/E1A binding inhibition; activity change, % (no concentration beside the values); AlphaScreen GST-E1A/His-CtBP binding, 1536-well; hits give low values; control for the full effect not named in the record; 340,000 tested, 0.49% active; in the data active means activity change below about -65%; inconclusive means about -30% to -65%; inactive means above about -30%; note: % is set by controls: 0 for no effect and ±100 for the full control effect; compound concentration not given in the record
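GST-E1A and His-tagged CtBP (125 nM each as 5X stock) were preincubated with pin-transferred compound for 2 h at 37 °C in the dark, then glutathione donor and nickel acceptor beads were added for 1 h before AlphaScreen reading.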
Sfp PPTase inh: blocks B. subtilis Sfp PPTase activity; AID 1490; 310,000 tested, 3.5% active; Biochemical Sfp PPTase activity, qHTS; Potency, µM, inactives show max response, negative = inhibition, hits mostly inhibitors; active = well fitted inhibition curve with a large enough effect; inconclusive = small, poorly fitted or top-dose-only effect, or another doubt; inactive = no such curve, though single readings can be large or run the other way;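 note: the enzyme is Sfp with the accession as filed and its product quenches rhodamine fluorescence; potency is the fitted concentration of half-maximal effect; 0% = enzyme reaction without inhibitor and -100% = no enzyme wells; top concentration of the series not given in the record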
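With Hepes-Na pH 7.6 buffer containing 10 mM MgCl2, Sfp (15 nM) modified BHQ-2-YbbR (12.5 uM) using rhodamine-CoA (5 uM). Two reads 30 minutes apart at 525/598 nm yielded each well's rate.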
D2 ag: activates the human D2 dopamine receptor; P14416; DiscoveRx PathHunter D2 beta-arrestin, luminescence, 90 min; 100% = 57 uM dopamine signal; activation, % (concentration not given with the values); 360,000 tested, 0.084% active; AID 624465; in the data active = activation above about 40%; inconclusive = about 15% to 40%; inactive = below about 15%; note: compound concentration not given in the record; the text of the record calls up to 30% inactive
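DiscoveRx PathHunter D2 beta-arrestin cells (2,100/well) attached overnight, then compound-stimulated 90 min at 37 C in HBSS/10 mM HEPES/0.1% Tween-20 buffer; beta-galactosidase complementation read by luminescence after 1 h at ambient temperature. Dopamine 57 uM final (EC100) as control.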
Six1-Eya2 inh: blocks human Six1 binding to Eya2. AlphaScreen GST-Six1/His-Eya2 binding, biochemical; hits give low values; control for the full effect not named in the record. activity change, % (concentration not given with the values). Q15475+O00167. 360,000 tested, 0.56% active; in the data active = activity change below about -65%; inconclusive = about -30% to -65%; inactive = above about -30%; note: % is set by controls: 0 for no effect and ±100 for the full control effect
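GST-Six1 + His-Eya2 (5X stock: 250/500 nM); Tris pH 8.0, 300 mM NaCl, 0.05% BSA, 0.02% Tween 20; GSH donor/Ni acceptor beads; 1 h 37 °C dark; AlphaScreen readout.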
Numbers without * were called inactive; ? = inconclusive; / = not tested or not shown; & = joins results of further samples; [ ] = dose if it differs, or a comment. Outcome played no part in choosing rows; 3.7% or so of the library scored in one or more.

SMILES | PINK1 expr mod | TRPV1 PAM | D2 PAM | CtBP-E1A inh | Sfp PPTase inh | D2 ag | Six1-Eya2 inh
CCN(CC)c1ncnc2c1cnn2C | / | / | -3.9 | 7.0 | 17.6% | -0.5 | 1.6
O=C(Nc1nccs1)c1ccc(COc2ccccc2)o1 | 9.8% | -0.5 | -6.0 | -17.9 | 12.2% | 2.1 | -4.8
CC(=O)c1cc(-c2ccccc2)[nH]c1N1CCOCC1 | 0.5%[38.3 µM] | -13.5 | 7.7 | 1.8 | ? | 0.9 | -2.2
CCOc1cc(C(=O)N2CCC(CC3CC(c4ccccc4)=NO3)(C(=O)NCc3ccc(OC)cc3)CC2)cc(OCC)c1OCC (stereo not given) | 1.4% | / | 4.4 | -1.2 | / | 3.0 | -2.6
Oc1ccc2ccccc2c1CN1CCCC1 | 0.4% | 3.1 | 1.0 | -5.9 | 6.1% | 3.8 | -4.1
Nc1nc(SCC(=O)Nc2cc(C(F)(F)F)ccc2Cl)[nH]c(=O)c1NC(=O)c1ccco1 | -0.6% | -3.0 | -14.1 | 5.9 | 4.1% | -1.0 | -2.1
CCCOc1ccc(/C(O)=C2/C(=O)C(=O)N(CCCOC)C2c2cccnc2)cc1 (stereo not given) | -2.6% | 5.6 | 21.6 | 9.7 | -5.0% | -1.7 | 0.3
COc1ccc(C(=O)Nc2cccnc2)cc1 | / | 0.0 | -5.4 | -2.9 | 12.6% | 0.5 | 0.1
C=CCNc1nc2ccccc2nc1NS(=O)(=O)c1ccc(OC)cc1 | 1.7% | 20.2 | 1.0 | 1.7 | 1.5% | -3.1 | 3.1
CCOc1ccc(Nc2nc(Cl)nc(NCCO)n2)cc1 | -0.3% | 0.1 | 0.9 | -29.9 | 7.7% | -3.1 | -15.9
COc1ccc(NC(=O)CC2C(=O)N(C)C(=S)N2CCc2ccccc2F)cc1 (stereo not given) | 15.8µM* | -2.7 | -5.5 | -1.8 | 12.6% | -0.2 | -0.8
Cc1cc(C)c2c(=O)[nH]c(SCc3ccc([N+](=O)[O-])cc3)nc2n1 | 0.5% | 9.6 | -7.8 | -2.2 | 1.1% | -5.8 | -26.3
O=C(Nc1ccccc1)c1cc([N+](=O)[O-])ccc1NC1CCCCC1 | 7.9% | 9.9 | -9.1 | -25.0 | 19.1% | -7.6 | -17.3
COc1ccccc1CN1CCNC(=O)C1CC(=O)NC1CCCCCC1 (stereo not given) | 2.1% | -2.2 | -26.4 | -4.4 | 10.2% | 1.5 | 2.7
Clc1ccccc1Nc1nc2ccccc2o1 | 2.2% | 6.9 | -3.3 | 0.5 | / | 2.3 | 12.1
O=C(NCc1ccccn1)c1cc(-c2ccncc2)nc2ccccc12 | -5.7% | 0.3 | -4.3 | -3.4 | / | -4.7 | -2.6
Cc1onc(-c2ccccc2)c1C(=O)Nc1cccc(S(=O)(=O)N2CCCCC2)c1 | 0.2% | / | -0.5 | -1.2 | / | -3.1 | -8.2
CCCCn1c(N)c(N(CCOC)C(=O)c2cc(C)oc2C)c(=O)[nH]c1=O | 0.9% | 6.2 | ? | -0.4 | / | 1.8 | -0.1
CN1CCN(Cc2cc(=O)oc3ccc(Cl)cc23)CC1 | -3.1% | -2.4 | -15.0 | 4.1 | 3.1% | -4.1 | 1.0
CNC(=S)N(Cc1ccc(OC)cc1)Cc1cc2cc(C)ccc2[nH]c1=O | 9.9% | 6.8 | -4.8 | 0.8 | 21.6% | -5.1 | 8.6
Cc1ccc2c(CC(=O)NCc3cccs3)coc2c1 | 3.9% | -26.6 | -39.3 | 1.0 | -0.7% | -5.5 | 1.6
O=C(O)c1ccc2c(c1)C(=O)N(c1cc(C(=O)O)ccc1Br)C2=O | 2.1%[38.3 µM] | 7.3 | -5.1 | 5.6 | ? | -4.3 | -0.7
O=C(CCN1C(=O)/C(=C/C=C/c2ccccc2)SC1=S)Nc1nccs1 | 4.9% | 23.4 | 3.7 | -1.5 | -2.7% | 3.6 | 6.9
CC(C(=O)N1CCc2ccccc21)N1CCN(Cc2ccc(Cl)cc2)CC1 (stereo not given) | -0.3% | 22.1 | / | -2.3 | 7.6% | / | -3.9
Cc1ccc(-n2ncc3c(N4CCN(c5ccccc5)CC4)ncnc32)c(C)c1 | 11.0%[38.3 µM] | ? | -0.7 | -9.4 | 6.2% | -2.3 | -3.9
O=C(N/N=C/c1ccccn1)C(=O)N1CCCCCC1 | -2.6% | 2.6 | -8.0 | ? | 44.7µM* | -1.4 | ?
CC1CCCC(C)N1S(=O)(=O)c1ccc(NC(=O)CNC2CCCC2)cc1 (stereo not given) | 1.7% | -8.0 | -8.8 | -1.1 | -1.0% | -1.6 | 4.6
O=[N+]([O-])c1ccc(-c2c(O)c3ccccc3c3nc4ccccc4nc23)cc1 | -0.7% | -0.4 | -3.2 | -6.9 | -7.9% | -2.5 | -1.2
Cc1c(NC(=O)c2cn3ccccc3n2)cccc1-n1cnnn1 | 20.4% | 4.3 | -6.5 | 3.3 | 12.5% | -2.5 | -2.7
CCCNC(=O)CSc1nc(-c2cccs2)cc(C(F)(F)F)n1 | -3.4% | -1.3 | 5.9 | -10.4 | 5.5% | -3.5 | 0.7
Cc1csc(SC(C)C(=O)Nc2ccc(Cl)cn2)n1 (stereo not given) | 2.1% | 3.6 | -16.2 | 10.6 | 7.6% | -4.4 | 3.2
CC(C)C(=O)Nc1cccc(C(=O)Nc2nccs2)c1 | 1.3% | -1.4 | -13.9 | -6.2 | 0.6% | -0.2 | -3.1
COC(=O)CSc1nc(C)c2ccc(OC)cc2n1 | -2.0%[38.3 µM] | 7.8 | 4.1 | -13.3 | 8.0% | 0.6 | 1.5
O=C(/C=C/c1ccccc1)Nc1cccc(S(=O)(=O)Nc2ccccc2F)c1 | 4.2% | 4.7 | 6.2 | 0.0 | 3.98µM* | -3.1 | -1.6
O=C(Nc1ccc(S(=O)(=O)N2CCOCC2)cc1)c1nn(-c2ccc(F)cc2)ccc1=O | 1.2% | -5.4 | 14.7 | -2.1 | 14.7% | -0.7 | 0.0
CC(=O)c1ccc(OC(=O)CCN2c3ccccc3Sc3ccccc32)cc1 | -0.9% | -3.4 | -18.6 | 7.1 | 0.1% | -0.5 | -3.7
Cc1nc(-c2ccc(F)cc2)c(CC(=O)N2CCN(S(=O)(=O)c3ccccc3Br)CC2)s1 | -2.4% | 0.3 | -6.4 | 8.3 | -4.8% | -3.0 | -0.4
COc1ccc(Nc2nnc(SC(C(=O)Nc3cc(C)ccc3C)c3ccccc3)s2)cc1 (stereo not given) | 0.6% | 4.4 | -4.7 | -4.9 | 10.7% | -1.1 | 4.4
COc1ccccc1Nc1nc(NCCC(C)C)nc(N)c1[N+](=O)[O-] | 6.0% | / | -8.2 | -15.3 | 15.1% | -4.3 | -2.2
CCOC(=O)C1(C)CCN1C(=O)c1cccc(OC(F)(F)F)c1 (stereo not given) | 2.5% | / | -7.8 | 5.2 | / | -4.2 | 8.6

Structures from the list above containing a thiophene ring, fused or not:
SMILES | PINK1 expr mod | TRPV1 PAM | D2 PAM | CtBP-E1A inh | Sfp PPTase inh | D2 ag | Six1-Eya2 inh
Cc1ccc2c(CC(=O)NCc3cccs3)coc2c1 | 3.9% | -26.6 | -39.3 | 1.0 | -0.7% | -5.5 | 1.6
CCCNC(=O)CSc1nc(-c2cccs2)cc(C(F)(F)F)n1 | -3.4% | -1.3 | 5.9 | -10.4 | 5.5% | -3.5 | 0.7

The list continues:
SMILES | PINK1 expr mod | TRPV1 PAM | D2 PAM | CtBP-E1A inh | Sfp PPTase inh | D2 ag | Six1-Eya2 inh
C=CCN1c2ccccc2[C@]23C[C@@H](C(=O)OC)N(C(=O)NCCC)C2=NC(C(=O)OC)=C(C(=O)OC)[C@H]13 | 0.5% | 17.1 | -7.6 | -8.0 | 12.0% | -2.8 | -17.6
CC(=O)c1ccc(N=Nc2ccc(C)cc2)cc1 | 6.4% | -4.1 | -6.6 | ? | -0.2% | 2.3 | ?
C/C(=N\NC(=O)COc1ccccc1F)c1cc2ccccc2o1 | 1.9% | 9.6 | -15.4 | -0.9 | -2.5% | -1.5 | -9.2
Nc1nc(CSc2ncccn2)nc(Nc2ccccc2)n1 | / | 4.1 | 0.6 | 6.7 | -4.1% | 1.1 | 1.0
Cc1ccc(NC(=O)COC(=O)Cn2cnc3c2c(=O)n(C)c(=O)n3C)cc1F | 0.3% | -4.8 | -3.4 | 5.5 | / | 1.0 | 4.0
CCOc1ccc(NC(=O)Nc2cccc(C(=O)O)c2)cc1 | 0.9% | -3.8 | -4.5 | / | 1.4% | 0.4 | -20.7
Cc1cccc(-c2nn(-c3ccccc3)cc2C(=O)N2CCN(C3CCS(=O)(=O)C3)CC2)c1 (stereo not given) | 0.6% | -9.4 | -20.5 | -3.8 | / | 3.3 | 4.5
C=CCN(c1ccc(C(=O)N2CCCC2)cc1)S(C)(=O)=O | 23.6%[38.3 µM] | -9.7 | 4.1 | 0.0 | -18.3% | 1.0 | 2.6
O=C(Nc1ccc2c(c1)OCCO2)c1ccc(NC(=O)C2CCCO2)cc1 (stereo not given) | -1.4% | 11.3 | 7.2 | 11.3 | 12.2% | -1.6 | 0.2
c1ccc(CNc2ncnc3sc4c(c23)CCCC4)nc1 | 3.1% | -19.2 | 0.0 | -3.0 | -3.3% | -9.4 | -5.5
Cc1cn([C@H]2C=C[C@@H](CO)O2)c(=O)[nH]c1=O | 1.5%&-0.3% | 8.7&-4.8&-4.2 | -0.4&-6.3 | 1.4&9.3 | 23.0%&12.2%&11.5% | 1.7&1.0 | 21.3&-0.8
O=[N+]([O-])c1ccc2oc(-c3ccccc3)nc2c1 | 1.7% | 14.0 | 17.6 | -6.2 | 2.8% | -1.8 | -1.8
Cc1ccc(N=C2NC(=O)/C(=C/c3cccnc3)S2)c(C)c1 | -2.8% | 12.9 | -10.5 | -19.8 | 6.6% | -6.3 | -12.9
O=C(NCCc1ccccc1)C(=O)Nc1nccs1 | -0.7% | 0.4 | -13.4 | 0.0 | -5.3% | -3.2 | 6.6
O=C(OCC(F)(F)F)c1cccc(COc2ccc3ccccc3c2)c1 | 2.9% | 16.7 | -1.8 | 66.3 | 1.5% | -5.3 | 66.4
CC1(C)OC2OC(C(=O)N/N=C/c3ccccc3F)C3OC(C)(C)OC3C2O1 (stereo not given) | -2.5% | -1.9 | -6.6 | 4.8 | 18.8% | 6.8 | 0.4
CCOc1ccc(NCc2cccn2-c2nnc(N3CCC(C(=O)NCCCN4C(C)CCCC4C)CC3)s2)cc1 (stereo not given) | 2.3% | 9.8 | -16.6 | -22.6 | -10.6% | -15.2 | -22.8
